PV pol inh = inhibitors of poliovirus RNA polymerase binding and polymerization; poliovirus polymerase elongation, fluorescence polarization; hits give low values; AID 588519; 150,000 compounds, 0.66% hits; % elongation, % (compound at 16.7 µg/mL); P03300; in the data active = % elongation below about 90%; also: some results filed as inactive read as strong as hits
Target sequence (P03300 1749-2209 limits assumed): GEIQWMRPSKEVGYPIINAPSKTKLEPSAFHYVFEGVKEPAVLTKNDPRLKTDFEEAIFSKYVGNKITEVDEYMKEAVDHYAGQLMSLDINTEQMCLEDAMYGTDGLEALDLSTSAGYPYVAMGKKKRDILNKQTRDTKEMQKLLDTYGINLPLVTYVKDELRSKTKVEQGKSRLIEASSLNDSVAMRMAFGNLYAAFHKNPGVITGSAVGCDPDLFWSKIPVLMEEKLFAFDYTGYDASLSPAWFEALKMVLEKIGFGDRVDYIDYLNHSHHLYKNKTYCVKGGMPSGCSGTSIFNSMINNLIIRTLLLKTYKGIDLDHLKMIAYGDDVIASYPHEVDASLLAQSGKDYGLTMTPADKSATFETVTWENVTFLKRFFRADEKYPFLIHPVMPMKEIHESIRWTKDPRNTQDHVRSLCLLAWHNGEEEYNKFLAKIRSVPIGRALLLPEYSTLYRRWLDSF
Mtb MenB inh = inhibitors of Mycobacterium tuberculosis MenB enzyme; MenB enzyme assay, absorbance read-out; some hits fall short of the stated cut; 100,000 compounds, 0.43% hits; inhibition, %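 (about 12 µg/mL by stock and volumes)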; P9WNP5;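 active = mean of two replicates above 30%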;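 also: 0% = no compound and 100% = wells with inactive enzyme; the first replicate is given; strong numbers were not always called active; inactives centre near -10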
Mtb MbtI inh = blocks the Mycobacterium tuberculosis siderophore enzyme MbtI. purified MbtI enzyme, fluorescence intensity read-out. inhibition, %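 (about 17 µg/mL by stock and volumes)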. 100,000 compounds, 0.89% hits;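 active = above 50% in both replicates, above 80% if mildly self-fluorescent; inactive = the rest, strongly fluorescent compounds included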;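 also: 0% = mean of negative and 100% = mean of positive controls; one replicate is shown; some compounds called inactive have numbers as strong as hits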
Target sequence (P9WFX0 whole entry, looked up): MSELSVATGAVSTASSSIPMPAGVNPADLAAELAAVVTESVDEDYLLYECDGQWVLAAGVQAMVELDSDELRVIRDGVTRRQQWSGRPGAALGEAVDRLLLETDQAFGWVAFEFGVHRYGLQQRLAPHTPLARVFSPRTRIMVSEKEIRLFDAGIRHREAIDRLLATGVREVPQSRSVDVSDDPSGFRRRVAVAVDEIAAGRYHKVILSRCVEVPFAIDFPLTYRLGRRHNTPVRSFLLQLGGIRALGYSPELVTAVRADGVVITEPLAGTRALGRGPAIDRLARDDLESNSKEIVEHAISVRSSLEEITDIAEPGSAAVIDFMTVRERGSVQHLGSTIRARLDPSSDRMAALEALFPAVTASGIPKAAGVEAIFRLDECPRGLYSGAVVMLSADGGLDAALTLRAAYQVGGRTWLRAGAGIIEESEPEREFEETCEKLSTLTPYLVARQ
PV pol inh intensity = recorded beside PV pol inh, whose call it bears; % elongation; measured here: total intensity read-out; formula for this scale not given here;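 total fluorescence in place of polarization; lower means less elongation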
* marks the source's active call; other numbers are inactive results; nt = not tested or not shown; & = joins results of further samples.

Below each SMILES: PV pol inh	PV pol inh intensity	Mtb MenB inh	Mtb MbtI inh
> C[C@@H]1C(=O)OC2[C@H](O)C34[C@@H]5OC(=O)[C@@]3(O[C@@H]3OC(=O)[C@H](O)[C@@]34[C@H](C(C)(C)C)[C@H]5O)[C@]21O (some centres not stated)
  101.0	100.0	0.5	-1.2
> COc1ccc(-c2nc(CS(=O)CC(=O)N3CCCC3)c(C)o2)cc1 (configuration not stated)
  104.0	108.0	-23.6	22.7
> O=C(c1cc(-c2ccc3c(c2)OCO3)on1)N(C1CCCCC1)C1CCCCC1
  101.0	103.0	-17.0	-5.3
> CN1CCN(S(=O)(=O)c2ccc(NC(=O)C(C)(C)C)cc2)CC1
  102.0	106.0	5.6	-2.6
> N/C(=N\S(=O)(=O)c1ccccc1)c1ccccc1
  102.0	109.0	-1.4	-3.0
> CSc1nc(N/C=C(\C#N)S(=O)(=O)c2ccccc2Cl)nc(N(C)C)n1
  101.0	105.0	-2.7	-8.7
> O=C(CSc1nc2ccccc2n1Cc1ccccc1)Nc1ccccn1
  102.0	101.0	-19.6	-7.8
> O=C(NCc1nc(-c2ccccc2)no1)c1ccccc1
  104.0	98.0	-5.5	-2.0
> O=C(NC1(c2ccccc2)CC1)N1CCN(c2ccccc2)CC1
  105.0	98.0	5.8	nt
> CN(C)C(=O)c1ccc(I)cc1
  102.0	102.0	-1.6	-17.6
> COCCn1c(=NC(=O)CSCC(=O)N2CCCc3ccccc32)sc2cc(OC)ccc21
  102.0	108.0	-24.8	4.6
> CCCC(=O)NC(=S)Nc1cccc(-c2nc3cc(C)cc(C)c3o2)c1C
  98.0	104.0	-30.6	-8.7
> CC1(c2ccc3c(c2)OCCO3)NC(=O)N(CC#N)C1=O (configuration not stated)
  104.0	107.0	-25.2	-10.3
> CCC(C)N=C1NC=NC2SC(C3COc4ccccc4O3)=CC12 (configuration not stated)
  106.0	101.0	-21.5	-16.8
> CN(C(=O)c1ccc(-n2cnnn2)cc1)C1CC(C)(C)NC(C)(C)C1
  96.0	88.0	-17.1	nt
> CCOc1ccc(NC(=S)NC(C)(C)CC)cc1
  105.0	93.0	-14.8	-7.8
> CCNc1ccc2oc3ccccc3c2c1
  101.0	97.0	nt	86.6
> NC(=O)NCC(=O)N1CCN(c2c(F)c(F)c(F)c(F)c2F)CC1
  103.0	107.0	3.2	-6.6
> COc1ccc(NC(=O)Nc2c(C)noc2-c2ccccc2)cc1
  102.0	105.0	15.6	-3.5
> CC(Cc1ccco1)NC(=O)c1ccc(C(F)(F)F)cc1 (configuration not stated)
  102.0	107.0	nt	-6.3
> C=C(C)CN1C(=O)C(O)(c2c[nH]c3ccccc23)c2ccccc21 (configuration not stated)
  107.0	100.0	-20.8	-3.5
> CNC(=O)c1cc(OC)ccc1Br
  108.0	113.0	6.5	-6.3
> Cc1cc(C)n(CC(=O)n2c3ccccc3c3ccccc32)n1
  100.0	102.0	4.8	-0.5
> CC1=C(C(=O)Nc2ccccc2C(=O)NCCc2ccco2)SCCO1
  100.0	103.0	8.8	3.9
> O=C(O)CCn1cc(/C=C2\SC(=S)NC2=O)c(-c2ccccc2)n1
  98.0	103.0	-256.4	6.0
> CC1=C(C#N)C(Nc2ccccn2)(C(F)(F)F)C(=O)N1 (configuration not stated)
  100.0	101.0	5.2	-0.8
> CCOC(=O)/C=C(\C)Nc1cc(-c2ccc(Cl)cc2)[nH]n1
  101.0	103.0	-3.0	-368.6
> O=C(Cn1c(-c2ccccc2)noc1=O)Nc1ccc(N2CCCCCC2)cc1
  103.0	101.0	-16.4	0.3
> N#Cc1ccc2ccn(CC(=O)NCCc3ccccc3)c2c1
  101.0	107.0	-17.9	133.1
> CC(C)c1ccc(OCC(=O)c2ccc(O)cc2O)cc1
  102.0	97.0	nt	1.1
> CCOC(=O)c1sc(NC(=O)c2cc(C(C)C)on2)c(C(=O)OCC)c1C
  101.0	100.0	-10.6	6.2
> C#CCn1c(O)c(N=NC(=O)Cn2nnc(-c3ccccc3)n2)c2cc(Br)ccc21
  99.0	99.0	6.0	-2.8
> O=C(NCc1ccccc1)c1cccnc1NC1CCCCC1
  99.0	101.0	-4.0	79.9
> CSC(=S)Nc1ccc(C)cc1
  nt	nt	6.0	-4.3
> COc1ccc(Cl)cc1Nc1nc(N)nc(CC(=O)CSc2nc3ccccc3s2)n1
  102.0	109.0	-34.9	9.1
> O=C(CSc1nnnn1-c1ccccc1)n1c2ccccc2c2ccccc21
  100.0	103.0	-1.5	-7.5
> CCOC(=O)c1c(C)oc2ccc(OC(=O)Nc3ccc(Cl)cc3)cc12
  98.0	102.0	-12.5	-9.7
> N#Cc1ccc(CC(C#N)(Cc2ccc(C#N)cc2)c2nnc3n2CCCCC3)cc1
  102.0	109.0	-24.1	-2.0
> O=C(O)C1C2C=CC(O2)C1C(=O)Nc1nc(-c2ccccc2)cs1 (configuration not stated)
  105.0	106.0	-22.4	-23.7
> Cc1ccc(SC(=O)c2c(C)noc2-c2cc(C)on2)cc1
  95.0	88.0	-27.7	9.1

Next compounds
SMILES	PV pol inh	PV pol inh intensity	Mtb MenB inh	Mtb MbtI inh
O=C(OCC(=O)N1CCCCC1)c1cnc(Cl)c(Cl)c1	100.0	101.0	nt	-9.3
CCN(CC)C(=O)c1sc(NC(=S)N2CCN(Cc3cnn(CC)c3C)CC2)c(C(=O)OC)c1C	103.0	105.0	-17.7	0.6
O=C(Oc1ccccc1OC(=O)c1ccccc1)c1ccccc1	102.0	100.0	-34.3	9.8
C=C1C2C[C@@]3(C4CC5C6(C3C[C@@H]2O)[C@@H](O)CC[C@@]5(C)CN(CC)[C@H]46)[C@@H]1O (some centres not stated)	100.0	100.0	1.5	-18.4
Cc1ccc(C)c(NC(=O)CN(C)c2ncccn2)c1	96.0	97.0	11.9	4.0
COC(=O)C(=C/C(C)=C/c1ccco1)C(=O)OC	102.0	103.0	-112.7	9.2
Cc1ccc(NC(=O)C2Cc3ccccc3O/C2=N\O)cc1C (configuration not stated)	102.0	102.0	-24.4	-2.0
S=c1ccc2ccccc2[nH]1	103.0	106.0	-194.5	82.2*
CCOC(=O)c1c(N=Cc2ccc(OC)c(OC)c2Cl)n[nH]c1C	111.0	106.0	7.4	9.2
Cc1ccc(S(=O)(=O)N2CCN(c3ncnc4sccc34)CC2)cc1C	104.0	111.0	7.7	-4.5
O=C(OCc1cccc2ccccc12)C1CCN(c2nc3ccccc3o2)CC1	107.0	107.0	-20.3	-5.7
O=c1ccc2cc(S(=O)(=O)NCc3ccccc3)ccc2o1	100.0	102.0	-6.4	5.2
O=C(CCCc1c[nH]c2ccccc12)Nc1nnc(-c2ccc(Cl)cc2)o1	102.0	99.0	-29.5	-22.2
O=C(c1ccccc1)N1CCN=C1SCc1ccccc1	101.0	104.0	-20.8	2.0
Cn1c(SCc2ccc(F)cc2)nc2ccc(C(=O)N3CCc4ccccc43)cc21	100.0	96.0	-13.3	-11.8
Cc1ccc(CN(C)C)c(OC(=O)N(C)C)c1	101.0	106.0	1.7	-4.2
COc1ccccc1NC(=O)CN1CCN(C/C=C/c2ccccc2)CC1	99.0	103.0	3.2	-0.1
Cc1ccc(S(=O)(=O)/C(C#N)=C/C2=Cc3ccccc3OC2)cc1	49.0	258.0	-25.1	nt
COc1cccc(C2NCCc3ccccc32)c1 (configuration not stated)	102.0	98.0	-60.5	-5.8
Cc1ccccc1N=C1C(=O)N(CN2CCCCC2)c2ccc(Br)cc21	98.0	99.0	-11.6	0.1
Cn1c(N)c(C(=O)COC(=O)CC2CC3CCC2C3)c(=O)n(C)c1=O (configuration not stated)	100.0	105.0	10.6	0.9
Cc1ccc(S(=O)(=O)CC(N)=O)cc1	102.0	101.0	-34.0	-6.7
CC(=O)Oc1ccc2occ(C(=O)c3ccc(F)cc3)c2c1	103.0	107.0	-21.1	nt
CC[N+](C)(C)c1cccc(O)c1	99.0&100.0	103.0&101.0	4.8&0.7	-0.6&-19.2
CC(C)[N+](C)(CCC(C(N)=O)(c1ccccc1)c1ccccc1)C(C)C	100.0&99.0	100.0&102.0	-0.2&-4.4	-6.7&-16.9
CCCn1c2ccc(F)cc2c2nnc(SCCN(CC)CC)nc21	104.0&99.0	110.0&101.0	-0.6	0.3
COc1ccc(C(=O)CNc2ccccc2CO)cc1	103.0	100.0	nt	-1.1
O=C(CN1CCOCC1)Nc1nc2ccc(Cl)cc2s1	103.0	104.0	7.7	13.1
CN(C)S(=O)(=O)N(CC(=O)N1CCCC1)c1ccccc1	101.0	100.0	-14.4	2.2
Cc1ccnn1C(C)C(=O)O (configuration not stated)	99.0	109.0	0.3	-9.1
Cn1c(=O)c2cc(C(=O)Nc3cccc(C(F)(F)F)c3)sc2c2ccccc21	102.0	105.0	-7.4	4.6
CC1(C)OC(=O)N(CC2CCCO2)C1(C)O (configuration not stated)	99.0	98.0	-16.7	nt
Cc1nn(-c2ccc(Cl)cc2)c2sc(C(=O)OCC(N)=O)cc12	101.0	108.0	-28.7	10.1
C#Cc1ccc(C#C)cc1	100.0	100.0	-2.3	-15.6
CCc1ccc(NC(=O)CN2C(=O)CC(C)Sc3ccccc32)cc1 (configuration not stated)	101.0	102.0	-21.9	5.7
NC(=O)C1Cc2ccccc2CN1 (configuration not stated)	98.0	102.0	7.7	-8.5
COCc1cnc(Nc2nc3ccccc3o2)nc1C(=O)OC	98.0	102.0	-22.5	-8.9
COC(=O)Cc1[nH]n(-c2nc3ccccc3s2)c(=O)c1C=Nc1ccc(C)cc1	100.0	95.0	-1.4	0.8
O=C(O)CCN1CCN(C2CCCCC2)CC1	102.0	101.0	-6.3	-8.6
CC(=O)Nc1ccc(S(=O)(=O)Nc2nc3ccccc3nc2Sc2nncn2C)cc1	99.0	116.0	-39.9	-6.9
CC(CC(=O)NCC1(N(C)C)CCCCC1)c1ccccc1 (configuration not stated)	100.0	98.0	-10.1	5.0
Cc1cccc(C)c1-n1ncc(C(=O)O)c1C1CCNCC1	98.0	93.0	12.4	-4.7
Cc1cc(C(=O)NN=C2CCCC2)c(C)n1-c1ccccc1	100.0	103.0	-5.4	3.6
O=C(CCc1ccccc1O)N1CCN(S(=O)(=O)/C=C/c2ccccc2)CC1	104.0	111.0	-3.4	0.6
CC(C(=O)NC1(C#N)CCCCC1)N1CCNC(=O)C1 (configuration not stated)	105.0	106.0	-28.6	-14.6
O=C(CCS(=O)(=O)c1cccc2nsnc12)N1CCCCC1	100.0	102.0	-27.6	9.8
COc1cccc(NC(=O)CN(C)C(=O)c2ccccn2)c1	102.0	106.0	-31.0	4.0
Nc1cccc2c1C(=O)N(CC(=O)N1CCc3ccccc31)C2=O	102.0	117.0	-27.6	2.5
O=C1Nc2ccccc2/C1=C\C1=Cc2ccccc2OC1	102.0	107.0	-27.2	15.5
CCN(CC)c1ccc(C=Nc2ccc(Br)cc2)cc1	106.0	103.0	-6.7	nt
CCOC(=O)CN1C(=O)C2(OCCCO2)c2ccccc21	102.0	104.0	3.2	-8.1
CN(C)S(=O)(=O)c1cccc(-c2nnc(SCc3cc(Cl)cc4c3OCOC4)n2N)c1	80.0*	72.0*	-27.9	86.2
NS(=O)(=O)c1ccc(NC2SC(=O)N(c3ccccc3)C2=O)cc1 (configuration not stated)	101.0	105.0	-5.8	17.6
CCOC(=O)C1=C(NC(=O)c2cccc(F)c2)Nc2ccccc2N=C1	103.0	108.0	-33.2	17.9

Structural class: the compounds so far containing a Cl atom (10)
SMILES	PV pol inh	PV pol inh intensity	Mtb MenB inh	Mtb MbtI inh
CSc1nc(N/C=C(\C#N)S(=O)(=O)c2ccccc2Cl)nc(N(C)C)n1	101.0	105.0	-2.7	-8.7
CCOC(=O)/C=C(\C)Nc1cc(-c2ccc(Cl)cc2)[nH]n1	101.0	103.0	-3.0	-368.6
COc1ccc(Cl)cc1Nc1nc(N)nc(CC(=O)CSc2nc3ccccc3s2)n1	102.0	109.0	-34.9	9.1
CCOC(=O)c1c(C)oc2ccc(OC(=O)Nc3ccc(Cl)cc3)cc12	98.0	102.0	-12.5	-9.7
O=C(OCC(=O)N1CCCCC1)c1cnc(Cl)c(Cl)c1	100.0	101.0	nt	-9.3
CCOC(=O)c1c(N=Cc2ccc(OC)c(OC)c2Cl)n[nH]c1C	111.0	106.0	7.4	9.2
O=C(CCCc1c[nH]c2ccccc12)Nc1nnc(-c2ccc(Cl)cc2)o1	102.0	99.0	-29.5	-22.2
O=C(CN1CCOCC1)Nc1nc2ccc(Cl)cc2s1	103.0	104.0	7.7	13.1
Cc1nn(-c2ccc(Cl)cc2)c2sc(C(=O)OCC(N)=O)cc12	101.0	108.0	-28.7	10.1
CN(C)S(=O)(=O)c1cccc(-c2nnc(SCc3cc(Cl)cc4c3OCOC4)n2N)c1	80.0*	72.0*	-27.9	86.2
